Compound activity from PubChem BioAssay.
HPGD inh – qHTS Assay for Inhibitors of HPGD (15-Hydroxyprostaglandin Dehydrogenase); purified HPGD, NADH fluorescence kinetic, PGE2 substrate; 4.3% of 150,000 active; Potency, µM, without a hit: top-dose activity change, negative = inhibition, most hits filed as inhibitors; 15-hydroxyprostaglandin dehydrogenase [NAD(+)] (Homo sapiens), P15428; active = well fitted inhibition curve with a large enough effect (not every such curve was filed as active); inconclusive = small, poorly fitted or top-dose-only effect, or another doubt; inactive = no such curve, though single readings can be large or run the other way;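 further: top concentration of the series not given in the record; plate controls included wells without enzyme; inactives centre near -10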
Target sequence (P15428 whole entry, looked up): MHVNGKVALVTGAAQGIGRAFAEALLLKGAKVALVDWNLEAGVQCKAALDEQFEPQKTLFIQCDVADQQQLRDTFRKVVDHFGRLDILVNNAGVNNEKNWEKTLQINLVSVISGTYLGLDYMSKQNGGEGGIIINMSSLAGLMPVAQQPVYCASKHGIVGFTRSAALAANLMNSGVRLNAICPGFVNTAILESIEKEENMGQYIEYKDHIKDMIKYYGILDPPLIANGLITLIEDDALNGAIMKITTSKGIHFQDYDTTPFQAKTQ
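20 nM HPGD preincubated 15 min at room temperature with compound in 50 mM Tris-HCl pH 8, 0.01% Tween 20. Started with 1 mM NAD+ and 30 uM prostaglandin E2; NADH fluorescence (360/450 nm) read 5 times over 30-s intervals, last minus first.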
Active calls of the source: *; i = inactive; ? = inconclusive. On the % scale 0 is the no-effect control and ±100 the full control effect; potency means the concentration at half of the fitted maximal effect. This is a subset (hit frequency here may not be typical).

smiles | HPGD inh
COc1ccc([N+](=O)[O-])cc1NC(=O)C(C)Sc1nc(C)c(C)c(C)n1 (stereo not drawn) | -19.4%
CS(=O)(=O)N(CC(=O)NCc1ccncc1)c1ccc(Cl)c(Cl)c1 | -10.2%
CC(C)c1nnc(NC(=O)CCC(=O)NCc2cccs2)s1 | ?
CCC(C)NS(=O)(=O)c1ccc(S(=O)(=O)N(CC(=O)Nc2ccccc2)Cc2ccco2)cc1 (stereo not drawn) | -10.8%
NS(=O)(=O)c1ccc(NC(=S)NC(=O)/C=C/c2ccco2)cc1 | -12.3%
FC(F)(F)c1cccc(CNc2ncccc2-c2nc3cc(Cl)ccc3o2)c1 | ?
CN=C1c2cc3cc(OC)ccc3n2CCN1Cc1ccccc1 | -8.7%
Cc1cccc(OCCCCCn2ccnc2)c1C | ?
CN(C(=O)c1ccco1)c1nnc(C23CC4CC(CC(C4)C2)C3)s1 | -25.1%
O=C(/C=C/c1cccc([N+](=O)[O-])c1)NCc1ccco1 | ?
Cc1ccc(NCC(=O)N/N=C/c2cc3ccccc3nc2Cl)cc1 | -13.9%
COc1ccc(-c2nc(N)n(C(=O)Cc3ccccc3)n2)cc1 | -10.6%
CC1(C)CC(=O)C=C(NC2CCCCCC2)C1 | -24.2%
O=C(c1c(Cl)cccc1Cl)N1CCCCCC1 | 28.2µM*
COC(=O)C1=C(C)Nc2nnnn2C1c1cccs1 (stereo not drawn) | 15.8µM*
COc1ccccc1Nc1nnc(SCC(=O)N2CCCC2)s1 | -14.0%
COC(=O)c1[nH]c2cc(C)ccc2c1NC(=O)CN1CCCc2ccccc21 | -12.2%
Cc1ccc(-c2nc3ccccc3c(=O)n2NC(=O)COc2ccccc2)cc1 | -5.8%
CCc1nc2c(oc3ccccc32)c(=O)[nH]1 | -16.7%
O=C(c1cccnc1)N1CCN(c2ccc([N+](=O)[O-])cc2Cl)CC1 | -2.8%
COc1ccc(C)cc1S(=O)(=O)N1CCC(C(=O)NCCc2ccccc2)CC1 | -9.1%
CC(=O)Nc1ccc(S(=O)(=O)NCc2csc(C)n2)cc1 | 0.0%
CC(C)CNS(=O)(=O)c1ccc(OCC(=O)Nc2ccc(F)cc2F)cc1 | -8.3%
O=C(c1cccc(F)c1)N1CCC[C@@]2(CCN(Cc3nccs3)C2)C1 | -13.3%
Cc1ccc(CCNC(=O)C23CN(Cc4ccccc4)CC2C(c2ccc([N+](=O)[O-])cc2)=NO3)cc1 (stereo not drawn) | -13.9%
O=C(CCN1C(=O)c2ccccc2C1=O)C1=NN[C@@H]2C(=O)N(c3cccc(F)c3)C(=O)[C@H]12 | -1.3%
CCC(Sc1nc2ccsc2c(=O)n1-c1ccc(Cl)c(C)c1)C(=O)NCc1ccco1 (stereo not drawn) | -4.2%
C/C(N)=C(/C#N)C(=O)CSc1nnc(Cc2ccccc2F)n1N | -2.2%
CC1CCN(C(=O)CSc2nnc(-c3ccncc3)n2C)CC1 | -28.0%
CCOC(OCC)P(=O)(C(C)C)C(C)C | -2.5%
O=C(c1cccn2c(=O)c3cc(Cl)ccc3nc12)N1CCN(Cc2ccc3c(c2)OCO3)CC1 | ?
COc1ccccc1N1CCN(C(=O)CCn2c(=O)[nH]c3ccsc3c2=O)CC1 | -6.5%
Cc1ccc(CN2C(=O)CCC2C(=O)NCC2CCCO2)cc1 (stereo not drawn) | -1.4%
COc1ccc(C(C)=O)cc1CSc1nnc(-c2ccc(Cl)cc2)n1-c1ccccc1 | -22.6%
Cc1nnc(SCc2nc(N)nc(Nc3ccccc3)n2)s1 | -29.5%
COc1cccc(CNc2cccc3cccnc23)c1O | 31.6µM*
Cc1cc(C)n(-c2nnc(C)n2NS(C)(=O)=O)n1 | -2.3%
Cn1c(SCc2ccc(C#N)cc2)nnc1-c1ccccc1 | -28.4%
Cc1cc(C)n(CC(=O)c2ccc(Br)cc2)c(=O)c1C#N | -18.6%
Cn1c(=O)c2c(nc(N3CCN(Cc4ccccc4)CC3)n2CCCc2ccccc2)n(C)c1=O | -11.6%
CCC1CCCCN1C(=O)CSc1nnc(-c2cccc(Cl)c2)o1 (stereo not drawn) | -22.4%
O=C(Nc1ccccc1)c1ccc(-c2ccccc2Cl)o1 | -19.6%
Cc1nc2ccc(NC(=O)c3ccc(F)c(S(=O)(=O)N4CCOCC4)c3)cc2s1 | i
CN(C)CCNC(=O)CNC(=S)N(Cc1ccccc1)Cc1cccnc1 | -4.7%
CCN(CC)CCCn1c(C)cc2c(c1=O)C(c1ccc(OC)c(OC)c1OC)C(C#N)=C(N)O2 (stereo not drawn) | -12.0%
CCOC(=O)CC(=O)CSc1ccc2nnc(-c3ccc(F)cc3)n2n1 | ?
Cc1cccc(N2CCN(C(=O)Cn3cccc3C(=O)c3ccccc3)CC2)c1C | -6.4%
COc1cccc(NC(=O)CSc2nnc(-c3ccc(C)cc3)o2)c1 | -14.5%
Cc1sc(NC(=O)C2CCCC2)c(C#N)c1C | 10µM*
Cn1nnnc1SCC(=O)Nc1ccccc1C(=O)NCc1ccccc1 | -7.8%

More entries
smiles | HPGD inh
CCCn1c(SCC(=O)NCc2ccco2)nc2c1c(=O)n(C)c(=O)n2C | -7.3%
CCOc1ccc2cc(C#N)c(SCC(=O)N3CCOCC3)nc2c1 | ?
Cc1c(NC(=O)C(C)OC(=O)c2cccs2)c(=O)n(-c2ccccc2)n1C (stereo not drawn) | -13.7%
CCOc1ccc(Br)cc1S(=O)(=O)Nc1ccc(C(=O)Nc2ccccc2OC)cc1 | -28.6%
c1nc(NC2CCCC2)c2[nH]cnc2n1 | -9.1%
CCOC(=O)c1sc(NC(=O)CSc2nnnn2-c2ccccc2)c(C(=O)OCC)c1C | -16.0%
CCOC(=O)c1cc2sccc2n1CC(=O)Nc1ccc(OC)c(OC)c1 | ?
Cc1ccc(NC(=O)C2CCN(S(C)(=O)=O)CC2)cc1C | -3.2%
CN(CCNS(=O)(=O)c1ccc2c(c1)oc(=O)n2C)Cc1ccccc1 | -5.9%
Cc1ccccc1OCCCn1c(=O)sc2ccccc21 | -24.8%
Cc1cc(O)cc(O)c1C(=O)Cc1ccccc1 | -18.1%
CCn1nnc(NC(=O)c2cccnc2Cl)n1 | -2.0%
Cc1ccc(S(=O)(=O)NCC(=O)OCC(=O)Nc2ncc(Cl)cc2Cl)cc1 | -13.0%
CC1(C)Cc2cccc(OCC(N)=O)c2O1 | -16.3%
COc1ccc(/C=C(/NC(=O)c2ccccc2)C(=O)N/N=C/c2ccncc2)c(OC)c1 | -8.0%
O=C(Nc1nccs1)c1cc2sccc2n1Cc1ccc(Cl)cc1 | ?
Cc1ccc(Sc2ncccc2COC(=O)Nc2ccccc2)cc1 | -2.5%
Cc1cc(C(=O)CSc2nnnn2-c2ccccc2)c(C)n1CCc1ccccc1 | -13.5%
COc1ccc([N+](=O)[O-])cc1COc1ccc2c(-c3ccccc3)cc(=O)oc2c1 | -10.5%
COc1ccccc1-c1noc(-c2ccncc2)n1 | -21.7%
COc1cc(/C=N/N=C/c2cc(OC)c(O)c(OC)c2)cc(OC)c1O | -14.7%
O=C(c1ccco1)N1CCN(c2ccc(S(=O)(=O)N3CCCC3)cc2)CC1 | 1.0%
COC(=O)c1nnn(CC(=O)NC(=O)Nc2cccc(C)c2C)c1C(=O)OC | -7.3%
Cc1cc(C)n(CC(O)CN2c3ccccc3Sc3ccccc32)n1 (stereo not drawn) | -10.2%
Cc1cc(N=CC2=C(O)CCCC2=O)no1 | -2.9%
COc1ccc2c(c1)c1nnc(SC)nc1n2C | -12.3%
CCCCC1=CC2=CC(=O)C(C)(OC(=O)c3ccco3)C(=O)C2=CO1 (stereo not drawn) | -7.3%
Cc1ccccc1-c1nc(-c2ccc(NC(=O)c3cccs3)cc2)no1 | ?
CCOC(=O)N1CCC(N2C(=O)c3ccccc3C2Nc2cccnc2)CC1 (stereo not drawn) | -12.7%
O=C(COC(=O)COc1ccc(Cl)cc1)NCc1cccs1 | ?
CCOC(=O)N1CCN(CC(=O)Nc2c(C(=O)OC)[nH]c3cccc(Cl)c23)CC1 | -12.1%
CN=c1oc2ccc(Cl)cc2cc1C(N)=O | -13.2%
CCOc1ccc(NC(=S)NC(=O)/C=C/c2ccc(OC)cc2)c([N+](=O)[O-])c1 | -11.3%
COC(=O)C1=C(C(=O)c2ccc(C)cc2)C(c2ccccc2)n2nnnc2N1 (stereo not drawn) | -12.5%
COc1ccc2cnn(-c3ccccc3)c(=O)c2c1OC | -16.9%
Cc1ccc2oc(=O)c3cnn(CC(=O)NCCc4ccsc4)c3c2c1 | -10.7%
CCOC(=O)c1c(C)[nH]c(C(=O)OCC(=O)Nc2cc(C)c(Cl)cc2OC)c1C | -3.1%
CCCCNC(=O)/C(C#N)=C/c1cccnc1 | ?
O=C(/C=C/c1ccc(Br)cc1)NC(=S)NNC(=O)c1ccco1 | -15.0%
C/C(CC(=O)Nc1ccccn1)=N\NC(=O)c1ccc2ccccc2c1 | -16.0%
Cc1ccnc(NC(NC(=O)C(C)C)(C(F)(F)F)C(F)(F)F)c1 | -6.9%
CCCCCn1c(=O)[nH]c2cc(C(=O)NCc3ccc4c(c3)OCO4)ccc2c1=O | ?
COc1ccc(S(=O)(=O)n2nc(OC(=O)c3c(-c4ccccc4Cl)noc3C)cc2N)cc1 | -22.8%
CN(CC(=O)NC(c1ccccc1)c1ccccc1)Cc1nc2ccccc2c(=O)[nH]1 | -2.3%
C=C1c2cc(CC)ccc2NC(=O)N1c1ccc(C)cc1 | 4.5%
CCc1ccccc1-n1cnc2cc(C(=O)O)ccc21 | ?
CCCC(O)(CCC)C(=O)NNc1ccccc1 | -5.4%
CN(C)CCNC(=O)CCCNC(=O)Cn1cnc2sc3c(c2c1=O)CCCC3 | -4.0%
O=C(Nc1ccccc1)/C(=C\c1ccncc1)NC(=O)c1ccccc1 | -4.3%
O=C(Nc1ncc2c(n1)CC(c1ccccc1)CC2=O)c1ccco1 (stereo not drawn) | -12.7%

New compounds follow
smiles | HPGD inh
Cc1ccc(Cn2nc(C)c(NC(=O)CSc3n[nH]c(C)c3[N+](=O)[O-])c2C)cc1 | -10.5%
Brc1ccccc1-c1ccccc1 | -3.8%
CN(C)C(CNC(=O)c1ccc(S(=O)(=O)NCc2ccco2)cc1)c1ccccc1 (stereo not drawn) | -10.1%
Cc1ccc(-c2nc3ncccn3c2Nc2ccc3c(c2)OCCO3)cc1 | 0.2%
COc1ccc(C2=NO[C@@H]3C(=O)N(c4ccc5c(c4)OCCO5)C(=O)[C@H]23)cc1OC | -15.6%
O=C(COc1ncnc2ccccc12)NCCC1=CCCCC1 | -7.7%
Cn1c(SCCCC(=O)c2ccc(Br)cc2)nnc1-c1ccncc1 | 17.8µM*
CCN(CC)c1ccc(NC(=O)c2cc3ccccc3o2)c(C)c1 | -11.6%
Cc1sc(NC(=O)c2ccco2)c(CN2CCN(c3ccc(F)cc3)CC2)c1C | ?

Of the compounds above, two have a CF3 group:
smiles | HPGD inh
FC(F)(F)c1cccc(CNc2ncccc2-c2nc3cc(Cl)ccc3o2)c1 | ?
Cc1ccnc(NC(NC(=O)C(C)C)(C(F)(F)F)C(F)(F)F)c1 | -6.9%

Entries from the list above that have an aryl thioether with sulfur outside any ring:
smiles | HPGD inh
COc1ccc([N+](=O)[O-])cc1NC(=O)C(C)Sc1nc(C)c(C)c(C)n1 (stereo not drawn) | -19.4%
COc1ccccc1Nc1nnc(SCC(=O)N2CCCC2)s1 | -14.0%
CCC(Sc1nc2ccsc2c(=O)n1-c1ccc(Cl)c(C)c1)C(=O)NCc1ccco1 (stereo not drawn) | -4.2%
C/C(N)=C(/C#N)C(=O)CSc1nnc(Cc2ccccc2F)n1N | -2.2%
CC1CCN(C(=O)CSc2nnc(-c3ccncc3)n2C)CC1 | -28.0%
COc1ccc(C(C)=O)cc1CSc1nnc(-c2ccc(Cl)cc2)n1-c1ccccc1 | -22.6%
Cc1nnc(SCc2nc(N)nc(Nc3ccccc3)n2)s1 | -29.5%
Cn1c(SCc2ccc(C#N)cc2)nnc1-c1ccccc1 | -28.4%
CCC1CCCCN1C(=O)CSc1nnc(-c2cccc(Cl)c2)o1 (stereo not drawn) | -22.4%
CCOC(=O)CC(=O)CSc1ccc2nnc(-c3ccc(F)cc3)n2n1 | ?
COc1cccc(NC(=O)CSc2nnc(-c3ccc(C)cc3)o2)c1 | -14.5%
Cn1nnnc1SCC(=O)Nc1ccccc1C(=O)NCc1ccccc1 | -7.8%
CCCn1c(SCC(=O)NCc2ccco2)nc2c1c(=O)n(C)c(=O)n2C | -7.3%
CCOc1ccc2cc(C#N)c(SCC(=O)N3CCOCC3)nc2c1 | ?
CCOC(=O)c1sc(NC(=O)CSc2nnnn2-c2ccccc2)c(C(=O)OCC)c1C | -16.0%
Cc1ccc(Sc2ncccc2COC(=O)Nc2ccccc2)cc1 | -2.5%
Cc1cc(C(=O)CSc2nnnn2-c2ccccc2)c(C)n1CCc1ccccc1 | -13.5%
COc1ccc2c(c1)c1nnc(SC)nc1n2C | -12.3%
Cc1ccc(Cn2nc(C)c(NC(=O)CSc3n[nH]c(C)c3[N+](=O)[O-])c2C)cc1 | -10.5%
Cn1c(SCCCC(=O)c2ccc(Br)cc2)nnc1-c1ccncc1 | 17.8µM*
